# CapD inh – inhibitors of Bacillus anthracis CapD enzyme | purified CapD enzyme, fluorescence intensity read-out; active compounds read low; some hits fall short of the stated cut | z-score (concentration not given with the values) | 140,000 compounds, 0.23% hits | AID 492967;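 active = z-score under -4 in either of two replicates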;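 note: stock transfer was 100 nL into about 40 µL; score is relative to mean and spread of the plate; one replicate is shown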
# AID504770 – growth inhibitors of E. coli YBA685 in a screen for V. cholerae RctB (chromosome II replication) inhibitors; E. coli YBA685 rctB-dependent plasmid, OD600 growth, 3 h; active compounds read low; z-score (concentration not given with the values); 130,000 compounds, 0.27% hits; AID 504770;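 active = z-score under -2 on both plates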;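 note: wells of about 30 µL received 100 nL stock; score is relative to mean and SD of the test wells; the first replicate is given; strong numbers were not always called active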
# The depositor's hits bear a star; / = not tested or not shown.
SMILES,CapD inh,AID504770
N#C/C(=C\N1CCc2ccccc21)S(=O)(=O)c1ccc(Cl)cc1,-0.045,-1.1
O=[N+]([O-])c1ccc2c(c1)C(N1CCOCC1)/C(=C\COc1ccc(F)cc1)O2 (stereo not given),-0.3,/
N#CCCSc1ccccc1NC(=O)c1sc2ccccc2c1Cl,-0.62,/
Cc1ccc(Nc2nc3nonc3nc2N(C)C)cc1,-0.41,/
CCOC(=O)COc1cc(NC(=O)c2ccc(OC)cc2)c(Cl)cc1Cl,-0.085,/
CCC(C)(C)C(=O)Nc1ccccc1C(C)C,/,-0.3
NC(=O)C1CCN(C2=NC(=O)/C(=C\c3ccc(Br)cc3)S2)CC1,0.26,1.9
COC(=O)c1cc(Nc2ncnc3c2cnn3-c2ccccc2)cc(C(=O)OC)c1,-0.55,/
O=C(CSc1ccc2c(c1)OCCO2)NCC(F)(F)F,/,-0.1
N#CC(C#N)=CC1CCCCC1,/,0.15
COc1ccc(CC(O)CN2CCCCC2)cc1 (stereo not given),-0.005,-0.3
O=C(CC1SC(=O)N(c2ccccc2)C1=O)Nc1ccccc1 (stereo not given),/,-0.4
CCNc1nc(C(F)(F)F)cc(=O)[nH]1,-0.78,2.9
NCCSCc1cccs1,/,-0.1
CCCNC(=O)c1ccc(CSc2nc3ccncc3[nH]2)cc1,41,0.9
CCOC(=O)c1sc2nc(SCC(=O)NCc3ccco3)n(Cc3ccccc3)c(=O)c2c1C,0.54,/
COc1ccc(Br)c(-c2nnc(-c3ccccc3[N+](=O)[O-])o2)c1,-0.49,/
COc1ccc(C(=O)N/N=C/c2cccc(F)c2)cc1,-0.39,/
Cc1oc(-n2cccc2)c(C#N)c1C(=O)O,/,-0.05
COc1ccc(C(=O)Nc2nc(C)cs2)cc1S(=O)(=O)N1CCCCC1C (stereo not given),/,0.2
O=C(CN1CCc2ccccc2C1)Nc1ccccc1,0.035,-1.1
CCc1ccc(NC(=S)NCC2CCCN2CC)cc1 (stereo not given),/,-0.3
CCCOc1ccc(C2NC(=O)NC(C)=C2C(=O)OC2CCCCCC2)cc1OC (stereo not given),0.075,/
CCN(CC)C(=O)Cn1cc(S(=O)(=O)CC(=O)N2CCCCC2)c2ccccc21,0.71,-1.1
N/C(=N\N=C\c1cccs1)SCc1ccccc1,-2.7,3.1
CC(C)S(=O)(=O)c1ncc(CO)n1Cc1ccccc1,-0.38,-1.5
COc1ccccc1OCCSc1ncnc2nc[nH]c12,/,-0.1
CC(C)NC(=O)N(Cc1ccccc1)Cc1cccnc1,-0.27,1.4
COCCn1c(SCc2coc(-c3cccs3)n2)nc2scc(-c3ccccc3)c2c1=O,/,0.2
CCOc1ccc(C2SC[C@H](C(=O)O)N2C(C)=O)cc1 (stereo not given in full),-0.76,0.25
CC1(C)OC2OC(C(=O)Nc3ccc(OC(F)(F)F)cc3)C3OC(C)(C)OC3C2O1 (stereo not given),-0.29,/
O=S(=O)(c1ccc(Cl)cc1)N(O)c1ccc(Cl)cc1,/,-1.5
Cn1c(NCc2ccncc2)nc2ccccc21,-0.24,1.4
CN(Cc1cc(Br)cc(Br)c1N)C1CCCCC1,0.37,0.05
CS/C(NCc1ccco1)=C(/C#N)S(=O)(=O)c1ccc(Cl)cc1,0.12,-0.4
CC(C)CC(=O)Nc1nnc(SCc2ccccc2)s1,-0.67,-0.3
CCN1C(=O)c2cccc3c(S(=O)(=O)NCc4ccccc4)ccc1c23,1.9,1.2
COc1ccccc1N(CC(=O)Nc1ccc2c(c1)OCO2)S(=O)(=O)c1cccs1,/,0.2
CC(=O)Nc1ccc(S(=O)(=O)Nc2ccc(F)cc2F)cc1,-0.05,/
O=C(O)CSC(=S)N1CCOCC1,-0.41,2
OCC1CCCN1Cc1ccc(Cl)cc1Cl (stereo not given),/,-0.2
CCOC(=O)/C(C#N)=C/C=C1/Sc2ccccc2N1C,/,0.3
N#Cc1ccc(/C=N/NC(=O)C2C3CCCCC32)cc1 (stereo not given),-1,1.1
CCCn1nc(C(=O)N2CC(=O)Nc3ccccc32)c2ccccc2c1=O,/,1.4
Cc1ccc(Sc2ccc([N+](=O)[O-])cn2)cc1,-0.22,/
COC(=O)c1ccccc1N=Cc1c(O)[nH]c(=S)[nH]c1=O,0.16,-0.3
CCOC(=O)c1cc(=O)n2[nH]c(-c3ccc(Br)cc3)cc2n1,/,-0.4
CC(C)(C)N1C(=O)c2ccc(C(=O)Nc3ccccc3C(=O)O)cc2C1=O,-0.4,-0.8
CCOC(=O)N1CCC(c2nc(C)sc2C(=O)NCc2ccc(Cl)cc2)CC1,0.38,-0.35
O=c1cc(CSCc2ccc(Cl)cc2)[nH]c(=O)[nH]1,11,-0.1
O=C(NCc1cccnc1)c1ccc(/C=C2\Sc3ccccc3N(Cc3ccccc3F)C2=O)cc1,-1.3,0.05
COc1ccc(C(c2c(C)[nH]n(-c3ccccc3)c2=O)c2c(C)[nH]n(-c3ccccc3)c2=O)cc1OC,-0.46,/
COc1ccc(C2N(c3ccc(Cl)cc3)CCN2c2ccc(Cl)cc2)cc1[N+](=O)[O-],0.065,/
O=C(COc1ncnc2ccccc12)N1CCCCC1,0.27,1.3
O=C1CC(/C=C/c2ccncc2)=Nc2ccccc2N1,-0.48,-0.25
Cc1ccc2nc(NNC(=O)c3ccc(S(=O)(=O)N4CC(C)OC(C)C4)cc3)sc2c1 (stereo not given),/,0.7
CCC(Oc1ccccc1)C(=O)N(C)C (stereo not given),0.12,-0.75
c1csc(C2=NN3C(C2)c2ccccc2OC3c2cccs2)c1 (stereo not given),/,0.6
COc1ccc(S(=O)(=O)Nc2nc(C(F)(F)F)cs2)cc1,-0.66,-1.1
CCN1CC=C2C(C#N)=C(N)C(C#N)(C#N)C(c3ccccc3OC)C2C1 (stereo not given),1.9,/
# Other structures follow:
SMILES,CapD inh,AID504770
COc1ccc(Nc2ncnc3c2cnn3-c2ccc(Cl)cc2)c(OC)c1,0.095,/
COc1n[nH]c2nncnc12,-0.24,-0.4
CCc1ccc(C(=O)NC(Cc2c[nH]c3ccccc23)C(=O)OCC(=O)c2ccc(OC)cc2)cc1 (stereo not given),-0.35,/
CCCc1c(C(=O)OCC)[nH]c2c1C(=O)CC(C)(C)C2,0.21,-0.1
COC(=O)c1ccc(COC(=O)C(C)N=C2NS(=O)(=O)c3ccccc32)o1 (stereo not given),/,0.35
CCOC(=O)CC(=O)CSc1nc2c(sc(=S)n2-c2ccccc2)c(=O)n1Cc1ccco1,-0.69,/
O=C(N/N=C/c1cn(-c2ccccc2)nc1-c1ccccc1)c1ccc(Cl)cc1,0.59,/
C#CCOc1c(Br)cc(/C=C2/NC(=O)NC2=O)cc1OCC,-0.15,/
Cc1nnc2c3ccccc3nc(NCCC3=CCCCC3)n12,14,-0.5
CCCNC(=O)c1ccc(N2CC3CC(C2)c2cccc(=O)n2C3)c(NS(=O)(=O)c2ccc3c(c2)OCCO3)c1 (stereo not given),-0.39,-0.7
O=C(N/C(=C/c1ccccc1)P(=O)(O)c1ccccc1)c1ccccc1,0.34,0.1
COc1cccc(NCc2cccc3c2CN(CC2CCCO2)C3)c1 (stereo not given),0.62,0.75

# Part of the list above, reformatted.
mol	CapD inh	AID504770
CCOC(=O)c1cc(=O)n2[nH]c(-c3ccc(Br)cc3)cc2n1	/	-0.4
CC(C)(C)N1C(=O)c2ccc(C(=O)Nc3ccccc3C(=O)O)cc2C1=O	-0.4	-0.8

# Another view of some results above:
Molecule	CapD inh	AID504770
CCc1ccc(C(=O)NC(Cc2c[nH]c3ccccc23)C(=O)OCC(=O)c2ccc(OC)cc2)cc1 (stereo not given)	-0.35	/
CCCc1c(C(=O)OCC)[nH]c2c1C(=O)CC(C)(C)C2	0.21	-0.1
COC(=O)c1ccc(COC(=O)C(C)N=C2NS(=O)(=O)c3ccccc32)o1 (stereo not given)	/	0.35
CCOC(=O)CC(=O)CSc1nc2c(sc(=S)n2-c2ccccc2)c(=O)n1Cc1ccco1	-0.69	/
O=C(N/N=C/c1cn(-c2ccccc2)nc1-c1ccccc1)c1ccc(Cl)cc1	0.59	/
C#CCOc1c(Br)cc(/C=C2/NC(=O)NC2=O)cc1OCC	-0.15	/
Cc1nnc2c3ccccc3nc(NCCC3=CCCCC3)n12	14	-0.5

# Going on with the list:
SMILES,CapD inh,AID504770
O=C1NC(=O)C(=Cc2ccc(Sc3ccc(Cl)cc3)o2)C(=O)N1,0.42,0.5
Cn1c(=O)c2cc(C(=O)c3ccccc3O)cnc2n(C)c1=O,/,0.7
NC(=S)Cc1ccccc1,/,0.4
COc1ccc2c(c1)c1nc3ccccc3nc1n2C,6.8,1.1
CC1Cc2cc(CCC(=O)O)ccc2O1 (stereo not given),/,0.35
CCN(CC)C1N(C(=O)c2ccc(Br)cc2)N=C2c3ccccc3S(=O)(=O)N21 (stereo not given),-0.39,/
O=C(Nc1ccc2c(c1)OCO2)c1ccccc1,/,0
COCCN1C(=O)/C(=C\c2c(Cl)cccc2Cl)C(C(=O)OC)=C1C,-1,-0.35
O=C(CN1CCCC1c1cccs1)Nc1cc(C(F)(F)F)ccc1-n1cncn1 (stereo not given),/,1.5
Cc1noc(C)c1CSc1ncccc1C(=O)NCCc1ccc(S(N)(=O)=O)cc1,/,-1.7
O=C(Nc1ccccc1)/C(=C/c1ccccc1)NC(=O)c1ccco1,/,2.8
O=[N+]([O-])c1cc(CN2CCN(c3cccc(C(F)(F)F)c3)CC2)c2cccnc2c1O,-0.86,/

# Profiles as entered above.
# O=C1NC(=O)C(=Cc2ccc(Sc3ccc(Cl)cc3)o2)C(=O)N1 is listed as CapD inh: 0.42; AID504770: 0.5
# CC1Cc2cc(CCC(=O)O)ccc2O1 (stereo not given) is listed as CapD inh: /; AID504770: 0.35
# O=C(Nc1ccc2c(c1)OCO2)c1ccccc1 is listed as CapD inh: /; AID504770: 0

# Next records follow:
SMILES,CapD inh,AID504770
O=C(CSc1oc(-c2cccs2)nc1S(=O)(=O)c1ccccc1)NC1CCCCC1,-0.08,0.3
CCc1ccc2oc(-c3ccc(NC(=O)c4ccccc4)cc3)nc2c1,0.015,-0.25
OC1(C#CCN2CCCCCC2)CCCCC1,/,-0.65
O=C(CCc1nc2cccnc2n1Cc1cccs1)N1CCc2ccccc21,3.9,-0.75
O=C1NC(=O)N(c2ccc3c(c2)OCO3)C(=O)/C1=C/c1ccc(-c2ccc(F)cc2)o1,-1.1,/
Cc1ccc(N(CC(O)Cn2c3ccc(Cl)cc3c3cc(Cl)ccc32)S(=O)(=O)c2ccc(C)cc2)cc1 (stereo not given),0.41,/
CC(=O)Nc1ncc(-c2ccncn2)c(-c2ccc(C(F)(F)F)cc2)n1,-0.56,/
CC1=C(C#Cc2ccccc2)c2ccccc2OC1(NC1CCCCC1)c1ccccc1 (stereo not given),3,/
COc1ccc(N2C(=O)CC(Sc3nc(N)c(C#N)c(-c4ccccc4)c3C#N)C2=O)cc1 (stereo not given),4.8,/
CCN1CCC(N(Cc2ccc(F)cc2)C(=O)Nc2ccccc2Cl)CC1,-0.37,-0.65
COc1cc(C(=O)CN2CCOCC2)cc(OC)c1OC,/,-0.4
O=C(C1CCCCC1)N1CCN(c2ccnc3cc(Cl)ccc23)CC1,4,0.35
COc1cc2ncnc(Nc3ccc(N4CCOCC4)cc3)c2cc1OC,-0.18,/
O=C(CSc1cc(Cl)nc(Cl)c1)NCCc1ccccc1,0.39,/
COc1nonc1NC(C)=O,-0.045,0.45
Clc1ccc2[nH]c3ccc(Cl)cc3c2c1,1.9,/
CSc1ccccc1NC(=O)Cn1nc(C(F)(F)F)cc1C,0.18,-0.35
CN(C)C(CNC(=O)c1ccco1)c1cccnc1 (stereo not given),-0.15,-0.5
CCOC(=O)c1sc(NC(=O)c2cc(-c3ccccc3)nc3ccccc23)c(C(N)=O)c1C,-0.14,/
CC(=O)Nc1ccc(O)c(C(=O)O)c1,5.4,-0.65
O=C(Nc1ccccc1)Nc1cccc(C(F)(F)F)c1,0.06,0.25
c1ccc2c(c1)CCc1c-2[nH]c2ccccc12,96,/
Cc1cc(NC(=O)CCC2CCCC2)nc2c1c(=O)oc1ccccc12,0.24,-0.4
COC(=O)c1cn(C(=O)c2cc(Br)ccc2Cl)nc1N,-0.2,0.8
COc1cc2c(c(O)c1OC)CC(=O)CCC2,0.35,-0.1
Cc1cccc(C)c1NC(=O)Cn1nc(-c2ccc3c(c2)OCCO3)ccc1=O,0.39,-0.8
CC(C)(C)C(=O)/C=c1\s/c(=C\c2ccc3c(c2)OCO3)c(=O)n1Cc1cc(=O)n2ccsc2n1,/,-0.05
Cn1nc(C(=O)N(Cc2cccs2)C2CCCC2)c2c1-c1ccccc1SC2,0.33,-0.8
Cc1ccc(-c2nnc(SC(F)F)c3ccccc23)cc1C,0.07,/
Cc1cc(=O)oc2c(C)c(OC(=O)c3ccco3)ccc12,0.72,0.15
O=C(CC(c1ccccc1)c1ccccc1)Nc1ccccn1,0.49,-0.7
CCC(C)NC(=O)Cc1csc(-c2ccccc2)n1 (stereo not given),0.17,-0.25
O=C(NCCc1cn2ccccc2n1)C1CCCCC1,/,-0.5
O=C(Nc1ccc(Cl)cc1)OCc1cc(-c2ccccc2Cl)on1,-0.28,/
S=C(NCCCn1ccnc1)NCc1cccs1,/,-0.3
COc1cc(OC)c(C(=O)COc2ncnc3ccccc23)c(OC)c1,/,0.1
COc1ccc(N2CCN(C(=O)CCS(=O)(=O)c3ccc4nc(C)sc4c3)CC2)cc1,-0.96,-0.95
CCOC(=O)CSc1nnc(Cn2nnc3ccccc32)n1-c1ccc(F)cc1,0.44,0.9
Cc1cc(NS(=O)(=O)c2ccc(NC(=O)Nc3ccc4ccccc4c3)cc2)no1,9.3,/
NC(=O)C1CC2CCC1CC2 (stereo not given),-1.4,-0.3
Cc1c(C(=O)NC(C)C)oc2ccc(S(=O)(=O)N3CCCC3)cc12,-0.46,-0.5
COC(=O)c1cc2sccc2n1Cc1nc(-c2ccccc2F)oc1C,-0.14,-0.95
COc1ccc(-c2csc(Cc3nnc4n3CCCCC4)n2)cc1,/,-1.2
CCCCc1ccc(NC(=O)CSc2nnc(N)s2)c(C)c1,-1,/

# High-throughput results: PubChem BioAssay, ICCB-Longwood Screening Facility, Harvard Medical School

# Rows are unselected; any-hit rate near 0.37%.
